From PubChem BioAssay
GIRK2 act – opens human GIRK2 potassium channels. HEK293-GIRK2 thallium flux, Thallos fluorescence. calls only for hits at 25 µM. 63,000 tested, 0.05% active. AID 1259325;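 active = among the strongest 0.2% of first-round signals and kept after retests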;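 also: first round at about 10 µM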
Target sequence (P48051 whole entry, looked up): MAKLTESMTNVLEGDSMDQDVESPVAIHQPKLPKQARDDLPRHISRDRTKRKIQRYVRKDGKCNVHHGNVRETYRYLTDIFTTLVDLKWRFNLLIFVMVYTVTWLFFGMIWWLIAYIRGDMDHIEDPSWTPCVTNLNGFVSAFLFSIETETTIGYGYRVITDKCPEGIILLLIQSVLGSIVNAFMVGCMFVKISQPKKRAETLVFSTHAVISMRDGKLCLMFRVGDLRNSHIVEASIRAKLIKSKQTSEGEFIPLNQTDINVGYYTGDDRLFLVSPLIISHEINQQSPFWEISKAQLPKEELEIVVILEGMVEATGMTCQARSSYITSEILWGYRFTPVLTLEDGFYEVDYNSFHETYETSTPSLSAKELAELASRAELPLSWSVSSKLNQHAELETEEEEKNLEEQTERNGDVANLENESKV
Calls only; i = inactive. This is a subset, so the mix of outcomes need not match the whole.

SMILES	GIRK2 act
COc1ccc(N/C=C(/C#N)S(=O)(=O)c2ccc(Cl)cc2)cc1OC	i
O=C(NCCn1cnc(-c2ccccc2)cc1=O)c1cc(-c2ccco2)on1	i
O=C(CN1C(=O)CCC1=O)Nc1ccc(-c2cnc3n2CCC3)cc1	i
COCCN1CCC(NC(=O)c2ccc(=O)n(C)n2)CC1	i
COc1ccc(-c2cc3c(=O)n(CC(=O)NCc4ccc(OC)c(OC)c4)ccn3n2)cc1	i
Cc1nc(-c2nnc(NC(=O)CCSc3ccccc3)o2)cs1	i
OCc1cc(C(O)CNCCCCCCOCCCCc2ccccc2)ccc1O (centres undefined)	i
COc1cccc(CNC(=O)CC2CCCCN2S(=O)(=O)c2ccc(Cl)cc2)c1 (centres undefined)	i
Cc1ccc(NC(=O)CCC2NC(=O)c3ccccc3NC2=O)c(C)c1 (centres undefined)	i
CC1CN(CCc2ccccc2)c2nc3c(c(=O)n(CC(=O)O)c(=O)n3C)n2C1 (centres undefined)	i
CCCCNC(=O)Cn1cnc2sc(-c3nc(-c4ccccc4)no3)c(C)c2c1=O	i
Cc1cccc(CC(=O)NNC(=O)c2ccc(=O)n(Cc3ccc(Cl)cc3)c2)c1	i
COC(=O)Cn1c(=O)c2c(nc3n(-c4ccc(OC)cc4)c(C)c(C)n23)n(C)c1=O	i
O=C(c1cc(-c2cccs2)[nH]n1)N1CCN(CCn2ccnc2-c2ccccc2)CC1	i
COc1ccc2oc(=O)c(S(=O)(=O)N3CCc4ccccc4C3)cc2c1	i
Cc1cc(C(=O)NCCc2nc3c(c(C(F)(F)F)n2)CCCC3)c(C)o1	i
Cc1c(C)n2c3c(=O)n(CCN4CCOCC4)c(=O)n(C)c3nc2n1CCO	i
O=C(CSc1nc2c(-c3ccccc3)c[nH]c2c(=O)n1C1CC1)NCC1CCCO1 (centres undefined)	i
Cc1c(C)n2c3c(=O)n(CCN4CCCCC4)c(=O)n(C)c3nc2n1Cc1ccccc1	i
O=C(NC1CCN(C(=O)c2cn(-c3ccc(F)cc3)nn2)CC1)c1cccc(F)c1	i
COc1ccccc1N1CCCn2c1nc1c2c(=O)n(CC(=O)OCc2ccccc2)c(=O)n1C	i
Cc1cc(S(=O)(=O)N2CCCCCC2)c(Cl)cc1Cl	i
COc1ccc(-c2noc(-c3c(C)cc(C)n(CC(=O)Nc4cc(OC)ccc4OC)c3=O)n2)cc1	i
O=C(Nc1ccccc1)Nc1cnc(Oc2ccccc2F)nc1	i
Cn1c(C(F)(F)F)nn(CCNC(=O)Cn2c(=O)oc3ccccc32)c1=O	i
(list continues)
SMILES	GIRK2 act
Cc1cc(C(=O)N=c2sc3cc(Cl)ccc3n2C)on1	i
COc1ccc(S(=O)(=O)Nc2cnc(N3CCOCC3)nc2)cc1Cl	i
O=C(Cn1nc2c3cc(-c4ccc(F)cc4)nn3ccn2c1=O)Nc1ccccc1C(F)(F)F	i
CC(=O)Nc1ccc(NC(=O)Cn2nnc(-c3ccccc3C)n2)cc1	i
Cc1cc2oc3c(c(=O)c2cc1Cl)C(c1ccccc1)N(c1nccs1)C3=O (centres undefined)	i
O=C(CCn1c(=O)[nH]c2ccccc2c1=O)N1CC=C(c2ccccc2)CC1	i
COCCCn1c(C(=O)Nc2ccc3c(c2)OCO3)cc2c(=O)n(C)c(=O)n(C)c21	i
COc1cc2[nH]c3c(=O)n(CCC(=O)NCc4ccc(Br)cc4)cnc3c2cc1OC	i
COc1ccccc1CNC(=O)C(=O)NCCC1CCCCN1S(=O)(=O)c1ccc(C)cc1 (centres undefined)	i
CCc1nc2sc(C(c3cccc(Br)c3)N3CCN(CC)CC3)c(O)n2n1 (centres undefined)	i
O=C(NCCCN1CCCC1=O)c1ccc2c(=O)n(-c3cccc(C(F)(F)F)c3)c(=S)[nH]c2c1	i
COc1ccc(NC(=O)CSC2CCCC2)cc1N1CCCC1=O	i
Cn1c(=O)c2c(NCCc3ccc(S(N)(=O)=O)cc3)ccnc2n(C)c1=O	i
Cc1cc(CNS(=O)(=O)Cc2ccc(C(F)(F)F)cc2)c(C)o1	i
O=C(N1CC(c2nc(C3CC3)no2)C1)C1(c2ccccc2)CCOCC1	i
CCc1c(C)nc(-n2nc(-c3cccs3)cc2NC(=O)c2ccco2)[nH]c1=O	i
COc1ccccc1-c1ccc(N2CCN(S(=O)(=O)c3ccc(F)cc3F)CC2)nn1	i
CCCCC[C@H](O)/C=C/[C@@H]1[C@@H](C/C=C\CCCCOC)[C@@H](O)C[C@H]1O	i
CCc1nnc(NC(=O)c2ccc(-c3ccc(OC)cc3[N+](=O)[O-])o2)s1	i
O=C(CCS(=O)(=O)c1ccccc1)N1CCN(c2cc(-c3ccccc3)ncn2)CC1	i
CCOc1ccccc1NC(=O)C(=O)NCc1cc(C)oc1C	i
CCCCc1ccc(N2C(=NC(=O)CC)SC3CS(=O)(=O)CC32)cc1 (centres undefined)	i
O=C(Nc1cc(N2CCCC2)ncn1)c1cc(-c2cccs2)on1	i
CCCCCCCCCCCCCCCCCCCC(=O)NCCO	i
CC(=O)c1cccc(NC(=O)CN(C)c2nc3c(Cl)cccc3s2)c1	i
(list continues)
SMILES	GIRK2 act
Cn1c(NC(=O)c2cccs2)c(-c2ccccc2)c(=O)c2ccccc21	i
Cc1ccc(C(=O)N2CCN(c3nnc(SCC(N)=O)s3)CC2)cc1C	i
Cc1csc(CN2CCN(C(=O)c3cccc(Br)c3)CC2)n1	i
Cc1nc(OCC(=O)N2CCCC2)cc(-n2cccn2)n1	i
O=C(Nc1cc(N2CCCC2)ncn1)c1csc(-c2ccccc2)n1	i
COc1cc(-c2noc(-c3cc(-c4ccco4)n[nH]3)n2)cc(OC)c1OC	i
COc1ccc(Nc2oc(-c3ccc(S(=O)(=O)N4CCCCC4)cc3)nc2C#N)cc1	i
COCCNC(=O)c1c(N)n(/N=C\c2ccc(Cl)cc2)c2nc3ccccc3nc12	i
CCOc1ccc(CCNc2nccn(-c3ccc4c(c3)OCO4)c2=O)cc1OCC	i
Cc1ccc(NC(=O)Cn2c(C)nc3c(sc4cccc(F)c43)c2=O)cc1C	i
Cc1ccc(NC(=O)Cn2cccc(S(=O)(=O)N3CCCCC3)c2=O)cc1Cl	i
COc1ccc(Cl)cc1NC(=O)Nc1cc(N2CCOCC2)ncn1	i
O=c1c(S(=O)(=O)N2CCCC2)cccn1Cc1cc(F)cc(F)c1	i
CCCn1c(=O)c2c(nc3n(-c4cccc(OC)c4)c(-c4ccccc4)cn23)n(C)c1=O	i
CC(=O)N1CCc2c(sc(NC(=O)c3ccc(Cl)s3)c2-c2nc3ccccc3s2)C1	i
Cc1nc(OCC(=O)Nc2cccc(C(F)(F)F)c2)c2ccccc2n1	i
CCOC(=O)c1cnn2ccc(NC(=O)c3cc(-c4ccccc4)nn3C)cc12	i
CCc1noc(C2CC(=O)N(c3ccccc3C)C2)n1 (centres undefined)	i
COc1cc(S(=O)(=O)n2cnc(C)c2)ccc1F	i
COCCCN1COc2ccc3c(=O)c(-c4ccc(OC)cc4)coc3c2C1	i
O=C(NCC(O)(c1ccccc1)C(F)(F)F)C(=O)Nc1ccc(OC(F)(F)F)cc1 (centres undefined)	i
COc1ccc(SCCCC(=O)N2CCN(c3nc4ccc([N+](=O)[O-])cc4s3)CC2)cc1	i
O=C(NCCC(c1ccccc1)c1ccccc1)C(=O)Nc1ccc(F)c(F)c1	i
CC(C)Sc1ccc(CC(=O)NCCN2CCN(c3ccc(F)cc3)CC2)cc1	i
COC(=O)c1sccc1S(=O)(=O)N(CC(=O)NCc1ccc(F)cc1)c1ccc(Cl)cc1	i

Some of the entries above, reformatted.
> COc1cc(S(=O)(=O)n2cnc(C)c2)ccc1F
  GIRK2 act: i
> COCCCN1COc2ccc3c(=O)c(-c4ccc(OC)cc4)coc3c2C1
  GIRK2 act: i
> O=C(NCC(O)(c1ccccc1)C(F)(F)F)C(=O)Nc1ccc(OC(F)(F)F)cc1 (centres undefined)
  GIRK2 act: i
> COc1ccc(SCCCC(=O)N2CCN(c3nc4ccc([N+](=O)[O-])cc4s3)CC2)cc1
  GIRK2 act: i

Additional results follow.
SMILES	GIRK2 act
CS(=O)(=O)N1CCCc2ccc(NC(=O)C(=O)NCCC(O)c3cccc4ccccc34)cc21 (centres undefined)	i
COc1cccc(CSc2nc(CC(=O)NCc3ccc4c(c3)OCO4)cc(=O)[nH]2)c1	i
Nc1ccc2c(c1)CC(=O)N2	i
Cc1cc(C(=O)Nc2nc(C(=O)NCCOc3ccc(F)cc3)co2)no1	i
Cc1cc(O)c(C(=O)c2c(C)c(O)cc(-c3cc(O)c(C)c(C(=O)c4c(O)cc(C)cc4O)c3O)c2O)c(O)c1	i
O=C(O)CCC/C=C\C[C@@H]1[C@@H](/C=C/[C@@H](O)CCc2cccc(C(F)(F)F)c2)[C@H](O)C[C@@H]1O	i
COc1ccc(NC(=O)Nc2ccc(Nc3ccc(C)nn3)cc2)cc1Cl	i
Cc1ccccc1NC(=O)NC(C)Cc1ccco1 (centres undefined)	i
COc1ccc(-n2c(C)nc3ccc(NC(=O)C4CCCO4)cc3c2=O)cc1 (centres undefined)	i
CCC(C)n1c(C)cn2c3c(=O)n(Cc4cc(C)ccc4C)c(=O)n(C)c3nc12 (centres undefined)	i
Cc1cc(OCC(=O)Nc2cccc(C)c2C)nc(N2CCCC2)n1	i
COc1ccc(CN(CC(=O)NC2CCCCC2)S(=O)(=O)c2cccnc2)cc1	i
CCc1nc2sc(C(c3cccc(Cl)c3)N3CCN(Cc4ccccc4)CC3)c(O)n2n1 (centres undefined)	i
O=S(=O)(c1cccnc1)N1CCN(Cc2nc3ccccc3[nH]2)CC1	i
Cn1nnnc1SCC(=O)Nc1ccccc1-c1ccc(=O)[nH]n1	i
O=C(CCCSc1ccc(NC(=O)c2ccc(F)cc2)nn1)NCC1CCCO1 (centres undefined)	i
Cc1ccc2c(Nc3ccc(F)c(C#N)c3)c(C(=O)N3CCSCC3)cnc2n1	i
O=C(NCCC(O)c1ccc2c(c1)OCO2)C1CC1 (centres undefined)	i
Cc1ccc(NCCNC(=O)Cn2cnc3ccccc32)nn1	i
O=C(c1ccc2c(c1)OCO2)N(C(=O)N1CCCCC1)c1ccc(Cl)cc1	i
COc1cccc(NC(=O)Cn2c(-c3ccc(C)cc3)nc3c(c2=O)CCN(Cc2ccccc2)C3)c1	i
CC(Cn1nc(-c2ccco2)ccc1=O)C(=O)Nc1ccc(-n2cnnn2)cc1 (centres undefined)	i
CCOc1ccc(C(=O)c2cn(CC(=O)Nc3ccc(Cl)cc3)c3cc4c(cc3c2=O)OCCO4)cc1	i
Cc1cc(CCNC(=O)c2cc(Cl)ccc2Cl)on1	i
COCCNC(=O)N(Cc1ccsc1)C1CC1	i
Further entries follow.
SMILES	GIRK2 act
CCOC(=O)CNC(=O)c1nnn2cc(-c3ccccc3OC)[nH]c(=O)c12	i
COc1ccccc1-c1coc2c3c(ccc2c1=O)OCN(c1ccc(F)cc1)C3	i
Cn1nc(C(=O)NCc2nn(C3CCCC3)c(=O)c3ccccc23)ccc1=O	i
COc1cccc(COc2cn(C)c(C(=O)Nc3nc4ccccc4s3)cc2=O)c1	i
N#Cc1ccc(COCC2CCN(C(=O)NC(c3ccccc3)c3ccccc3)CC2)cc1	i
O=C(CSc1nc2ccccc2[nH]1)Nc1cccc2ccccc12	i
Cc1ccc2c(NC(=O)CNC(=O)c3c[nH]c4ccccc34)cccc2n1	i
COCCn1c(=O)c2c(nc3n(-c4cccc(C)c4)c(C)cn23)n(C)c1=O	i
CCC(=O)Nc1ccc(S(=O)(=O)NCC2(OC)CCSC2)c(C)c1 (centres undefined)	i
CCOC(=O)c1ccc(NC(=O)c2ccc3nccnc3c2)cc1	i
CCCOC(=O)Nc1ccc(I)cc1C	i
Cn1c(CN2CCN(CC(=O)NCc3ccccc3Cl)CC2)nc2ccccc21	i
CCCn1cc(C(=O)NCC2CCCO2)c(S(=O)(=O)N2CCN(c3ccccc3Cl)CC2)n1 (centres undefined)	i
COc1ccc(CC(C)(O)CNS(=O)(=O)c2ccc(OC)c(Cl)c2)cc1 (centres undefined)	i
COc1cc(/C=C/C(=O)N2CCN(Cc3nc(C4CC4)cs3)CC2)cc(OC)c1OC	i
Cn1cc(CC(=O)NCC#CCN2CCOCC2)c2ccccc21	i
COc1ccccc1N1CCN(CCNC(=O)c2cc(OC)c(OC)c(OC)c2)CC1	i
Cc1ccc(NC(=O)c2cn(Cc3ccc(NC(=O)c4ccc(Cl)cc4)cc3)cn2)c(C)c1	i
O=C(CSCc1ccccc1)NCC1(c2ccccc2)CCOCC1	i
CCOc1ccc(C(=O)NC(C)C(c2cccs2)N2CCOCC2)cc1 (centres undefined)	i
Cc1nc(-n2nc(-c3cccs3)cc2NC(=O)c2ccccc2F)[nH]c(=O)c1C	i
O=C(Nc1ccc(Cl)c2ncsc12)c1ccc(Cl)cc1	i
Cn1cc(OCc2ccc(F)cc2)c(=O)cc1C(=O)N1CCc2ccccc21	i
COC(=O)c1sc2ccccc2c1S(=O)(=O)Nc1ccc(C(N)=O)cc1	i
COc1cccc(NC(=O)NCc2cccc(Oc3ccc(F)cc3)c2)c1OC	i
CN(C)c1cccc(C(=O)N2CCc3nc(NC(=O)NC4CCCC4)sc3C2)c1	i
CC(=O)Nc1ccc(C)c(S(N)(=O)=O)c1	i
CCCNC(=O)CCCCn1c(=O)c2ccccc2n(CC(=O)Nc2ccc(OC)c(OC)c2)c1=O	i
Cc1ccc(NC(=O)CSc2ncnc3nc(N4CCCCC4)sc23)c(F)c1	i

Quoted from the results shown, 6 compounds:
SMILES	GIRK2 act
O=C(CSCc1ccccc1)NCC1(c2ccccc2)CCOCC1	i
CCOc1ccc(C(=O)NC(C)C(c2cccs2)N2CCOCC2)cc1 (centres undefined)	i
Cc1nc(-n2nc(-c3cccs3)cc2NC(=O)c2ccccc2F)[nH]c(=O)c1C	i
O=C(Nc1ccc(Cl)c2ncsc12)c1ccc(Cl)cc1	i
Cn1cc(OCc2ccc(F)cc2)c(=O)cc1C(=O)N1CCc2ccccc21	i
COC(=O)c1sc2ccccc2c1S(=O)(=O)Nc1ccc(C(N)=O)cc1	i
